MARV entry inh: inhibitors of Marburg virus binding or cell entry. actives 1.8% (n = 300,000). Potency, µM (series often up to 37.8 µM), for the others: at the highest dose activity change, negative = inhibition, usual class: inhibitors. Marburg virus pseudotyped entry inhibition, cell reporter; control for the full effect not named in the record; about a third of the inactives were read at about 46 µM; active = well fitted inhibition curve with a large enough effect; inconclusive = small, poorly fitted or top-dose-only effect, or effect the other way; inactive = flat fitted curve, though single readings scatter; tested in HEK293 cells; about a fifth of its hits are not listed in these tables; also: % is scaled to controls: 0 for no effect and ±100 for the full control effect; luciferase read-out
StopGo reporter: FMDV 2A StopGo reporter, luciferase signal; actives 1.2% (n = 410,000); human cells with a luciferase reporter of 2A StopGo recoding; control for the full effect not named in the record; Potency, µM (top dose mostly 57.9 µM), inactives show at the highest dose signal change, negative = less light; active = well fitted falling curve with a large enough effect; inconclusive = small, poorly fitted or top-dose-only effect; inactive = no such curve, though single readings can be large or run the other way; tested in HEK293T cells; also: % is scaled to controls: 0 for no effect and ±100 for the full control effect; nearly all actives have a fitted effect of over 45% in size; luciferase light after 4 h
Lassa entry inh: Lassa virus entry inhibition. Lassa virus pseudotype entry inhibition, cell reporter; control for the full effect not named in the record. AID 540256. actives 1.2% (n = 300,000). Potency, µM (doses to about 37.9 µM), for the others: at the highest dose activity change, negative = inhibition, usual class: inhibitors; active means well fitted inhibition curve with a large enough effect; inconclusive means small, poorly fitted or top-dose-only effect, or effect the other way; inactive means flat fitted curve, though single readings scatter; tested in HEK293 cells; also: % is scaled to controls: 0 for no effect and ±100 for the full control effect; nearly all actives have a fitted effect of over 50% in size; luciferase read-out
NS1 inh: blocks influenza NS1 protein function. Potency, µM (highest dose often 46.1 µM), inactives show at the top dose activity, positive = more growth. AID 2326. S. cerevisiae slowed by influenza A NS1, growth recovery by OD600. actives 0.4% (n = 270,000); also: actives are rising curves; nearly all actives have a fitted effect of over 50% in size
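Compounds were scored for reversing the slow growth caused by influenza A NS1 in S. cerevisiae, measured by optical density at 600 nm. Assay medium contained 2% galactose at pH 6.0; NS1-free yeast of the same strain were the positive control.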
RE007 growth inh: less growth of the S. pombe RE007 Vpr strain; S. pombe RE007 Vpr strain, BacTiter-Glo ATP luminescence, 24 h; control for the full effect not named in the record; Potency, µM (series often up to 92.2 µM), without a hit: at the highest dose activity change, negative = less growth; actives 0.21% (n = 360,000); active = well fitted falling curve with a large enough effect; inconclusive = small, poorly fitted or top-dose-only effect; inactive = no such curve, though single readings can be large or run the other way;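 also: % is scaled to controls: 0 for no effect and ±100 for the full control effect; nearly all actives have a fitted effect of over 50% in size; the assay follows cell death caused by Vpr and the record does not say whether a fall means rescue or toxicity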
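Fission yeast RE007 carrying one integrated HIV-1 vpr copy, seeded at OD 0.01 in PMG+AL medium with 23 nL pinned compound. Grown 24 h at 30 degrees; viability read by BacTiter-Glo luminescence after 5 min.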
Cruzain inh Det: cruzain (T. cruzi) inhibition with detergent. AID 1478. actives 0.43% (n = 200,000). P25779. purified cruzain, Z-FR-AMC fluorescence, 0.01% Triton. Potency, µM, inactives show max response, negative = inhibition, actives largely listed as inhibitors; active = well fitted curve in the direction sought with a large enough effect; inconclusive = small, poorly fitted or top-dose-only effect, or another doubt; inactive = no such curve, though single readings can be large; an effect the other way counts as inactive or inconclusive;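 also: plate controls were neutral wells for no effect and buffer without enzyme for full effect; nearly all actives have a fitted effect of over 40% in size; top concentration of the series not given in the record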
Target sequence (P25779 123-467 limits assumed): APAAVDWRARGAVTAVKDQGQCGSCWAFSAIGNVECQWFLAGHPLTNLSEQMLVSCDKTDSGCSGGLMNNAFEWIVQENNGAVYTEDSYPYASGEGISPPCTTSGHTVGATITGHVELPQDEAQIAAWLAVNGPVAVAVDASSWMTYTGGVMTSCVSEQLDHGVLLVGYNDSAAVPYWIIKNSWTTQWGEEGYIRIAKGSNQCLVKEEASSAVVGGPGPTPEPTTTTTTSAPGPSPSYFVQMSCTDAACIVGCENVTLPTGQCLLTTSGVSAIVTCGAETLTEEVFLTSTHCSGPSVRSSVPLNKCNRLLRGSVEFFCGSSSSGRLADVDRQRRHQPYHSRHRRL
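Cruzain (1.5 nM) preincubated 15 min at RT with compound in 100 mM sodium acetate pH 5.5, 5 mM DTT, 0.01% Triton X-100. Reaction started with 2 uM Z-FR-AMC; AMC fluorescence (ex 360/em 450 nm) change over 60 s gave rate.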
SARS PLP yeast: blocks SARS-CoV papain-like protease in a yeast assay; S. cerevisiae expressing SARS-CoV PLpro, growth rescue; control for the full effect not named in the record; Potency, µM (top dose mostly 32.9 µM), for inactives: top-dose activity, positive = growth rescue; actives 0.19% (n = 330,000); also: 0% is about no effect; nearly all actives have a fitted effect of over 55% in size; growth read by luminescence after 48 h
Cruzain noTriton: inhibitors of Trypanosoma cruzi cruzain without detergent | P25779 | purified cruzain, Z-FR-AMC fluorescence, no detergent | Potency, µM, for inactives: max response, negative = inhibition, usual class: inhibitors | actives 2.3% (n = 200,000); active = well fitted curve in the direction sought with a large enough effect; inconclusive = small, poorly fitted or top-dose-only effect, or another doubt; inactive = no such curve, though single readings can be large; an effect the other way counts as inactive or inconclusive;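 also: plate controls were enzyme without inhibitor for no effect and buffer without enzyme for full effect; nearly all actives have a fitted effect of over 40% in size; top concentration of the series not given in the record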
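Purified cruzain at 1.5 nM, pre-incubated 15 min with compound at room temperature in 100 mM sodium acetate pH 5.5, 5 mM DTT, 0.00005% Triton X-100. Reaction started with 2 uM Z-FR-AMC; AMC fluorescence increase over 60 s gives rate.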
* = called active by the depositor; u = inconclusive; x = not tested or not shown; & = joins results of further samples; [ ] = another dose, or the depositor's remark. Unless noted, calls follow the shape of the dose curve; as a rule, active means well fitted rising curve with a large enough effect; inconclusive means small, poorly fitted or top-dose-only effect; inactive means no such curve, though single readings can be large or run the other way. Potency is read from the fitted curve at half-maximal effect.

SMILES	MARV entry inh	StopGo reporter	Lassa entry inh	NS1 inh	RE007 growth inh	Cruzain inh Det	SARS PLP yeast	Cruzain noTriton
O=C(CN(C1CCCCC1)S(=O)(=O)c1ccc(Br)cc1)NCc1cccnc1	-21%[46.1 µM]	32%[activator]	x	-3%	3%	x	-1%	x
CC(C)NC(=O)C1CCN(C2CCN(C(=O)Cc3ccc4c(c3)OCO4)CC2)CC1	4%[46.1 µM]	1%	-1%[46.1 µM]	-4%	9%	x	1%	x
CN(C(=O)COC(=O)c1ccc(Cl)cc1N)C1CCCCC1	-10%[46.1 µM]	16%	-8%	x	-24%	x	-10%	x
Nc1cc(Cl)ccc1C(=O)OCC(=O)NC1CCS(=O)(=O)C1 (stereo not given)	-1%	-3%	-12%	1%	-15%	2.2%	1%	-25%
CC12CCCCC1C(C(N)=O)C(=O)O2 (stereo not given)	9%	-20%	16%[46.1 µM]	x	7%	x	x	x
Cc1ccc(SCc2c(C(=O)N/N=C/c3cccnc3)nnn2-c2nonc2N)cc1	x	-24%	x	3%	1%	x	-8%	x
CN(C)c1ccnc(Oc2ccc(C(C)(C)C)cc2)c1C#N	u	x	u	-9%	11%	-3.8%	1%	12%
CCOC(=O)c1ccc(N/C=C/C(=O)C(C)(C)C)cc1	17%[46.1 µM]	3%	u	1%	-10%	x	0%	x
CCNC(=S)NNC(=O)CC(C)C	3%[46.1 µM]	0%	-21%	6%	-5%	x	1%	x
CCOc1ccc(S(=O)(=O)Nc2cccc(C(=O)N(C)CC(=O)Nc3cccc(OC)c3)c2)cc1	-18%	u	11%	x	-3%	x	1%	x
COc1ccc(NC(=O)CC2C(=O)N(c3ccc(F)cc3)C(=O)N2Cc2cccnc2)cc1 (stereo not given)	x	12%	24%[46.1 µM]	x	x	2.1%	x	-5%
CC(C)(C)NC(=O)CSc1nncn1NCc1ccccc1	0%	10%	-18%	2%	20%	1.9%	7%	-8%
COc1ccc2nc(NC(=O)C34CC5CC(CC(NC(C)=O)(C5)C3)C4)sc2c1	u	4%	u	-8%	18%	x	-4%	x
CCOC(=O)c1cccnc1SCC(=O)N(CC)c1cccc(C)c1	-5%&-5%	-18%&-21%	-3%[46.1 µM]	-51%	11%	-1.1%&-1.8%	10%	5%&-5%
COc1cc(CCCN2C(=S)NC[C@@H]2CCCCN)cc(OC)c1OC	x	-6%	x	6%	-11%	x	1%	x
O=C(NC1CCCCCC1)C(=O)NC1CC1	22%[46.1 µM]	-1%	-2%[46.1 µM]	-6%	3%	x	-3%	x
Cc1ccccc1C(=O)Nc1cccc(-c2ccc(N3CCOCC3)nn2)c1	8%	-7%	-3%	x	2%	x	0%	x
O=C(CN1CCCCC1)c1ccc2c(c1)OCO2	x	13%	x	2%	2%	x	0%	x
O=C(O)C1C2C=CC(C2)C1C(=O)Nc1cccc(C(=O)N2CCCCC2)c1 (stereo not given)	23%	x	2%	4%	8%	2.1%	5%	6%
CCCCS(=O)(=O)Nc1ccc2cn[nH]c2c1	2%[46.1 µM]	11%	x	x	2%	x	0%	x
CCOc1cc(S(=O)(=O)NCCCn2ccnc2)ccc1Cl	x	18%	x	-4%	-4%	x	-5%	x
COc1ccccc1CNCc1ccc(OC)c(OC)c1OC	-45%	x	2%	14%	u	-1.5%	-4%	2%
Cc1ccc(C)c2nc3sc(C(=O)O)cc3cc12	u	15%	4%[46.1 µM]	u	-12%	x	-1%	x
O=CN1CCN(C(=O)c2ccc([N+](=O)[O-])cc2)CC1	10%	17%	3%	6%	6%	-2.5%	4%	2%
O=C(NNC(=O)c1cccs1)c1ccc(Cl)c([N+](=O)[O-])c1	16%	-13%	9%	5%	-2%	-2.2%	-9%	3%
COc1cccc2cc(C(=O)N3CCCCCCC3)c(=O)oc12	u	29%	12%[46.1 µM]	16%	19%	x	2%	x
CCSc1nc2c(c(=O)[nH]1)C(c1ccc(C)cc1)C1=C(CCCC1=O)N2 (stereo not given)	2%[46.1 µM]	-12%	-22%	x	-12%	x	0%	x
COc1ccc(F)cc1S(=O)(=O)Nc1ccc2c(c1)CCCN2C(=O)c1cccs1	x	0%	-8%[46.1 µM]	x	x	-6.4%	x	-14%
Oc1ccc(/C=N/N2CCN(C3c4ccccc4-c4ccccc43)CC2)c(O)c1	0%[46.1 µM]	u	u	5%	-7%	x	-3%	x
CN1CCSc2ccc(C(=O)Nc3cc(F)ccc3F)cc21	x	8%	x	-7%	-26%	x	-3%	x
COc1cccc(CNC(=O)CCC2CCCN(C(=O)c3cccc4c(C)c(C)[nH]c34)C2)c1 (stereo not given)	u	32%[activator]	-27%	2%	3%	x	1%	x
N#C/C(=C\c1cccnc1)c1ccc([N+](=O)[O-])cc1	-29%	-16%	u	-9%	-12%	x	-13%	x
O=C(NCC(c1cccnc1)N1CCOCC1)C(=O)Nc1cccc(Cl)c1 (stereo not given)	x	-20%	4%[46.1 µM]	x	x	-3.2%	x	3%
O=C(CSc1cccc[n+]1[O-])Nc1ccc(C(F)(F)F)cc1[N+](=O)[O-]	u	-11%	4%[46.1 µM]	x	3%	x	-1%	x
COC(=O)c1ccc(-c2ccc(/C=N/NC(=O)Cc3nnc(N)s3)o2)cc1	u	-6%	10%	9%	4%	x	-3%	x
c1ccc(CNc2ncnc3c2cnn3Cc2ccccc2)cc1	u	x	u	-29%	1%	-4.5%	-13%	2%
COC(=O)c1ccccc1NC(=O)c1nc(S(=O)(=O)Cc2ccccc2F)ncc1Cl	17%[46.1 µM]	-17%	12%[46.1 µM]	x	x	-1.5%	x	-8%
O=C(NCCc1ccc(F)cc1)c1ccc(NS(=O)(=O)c2ccc3[nH]c(=O)[nH]c3c2)cc1	13%[46.1 µM]	3%	0%	x	-1%	x	1%	x
Cc1ccc(NC(=S)NNC(=O)c2ccc(N3CCOCC3)c([N+](=O)[O-])c2)cc1C	22%	-28%	-12%	17%	0%	-3.1%	6%	12%
CC1=Nc2ccccc2/C1=C\c1nc(-c2ccc(C(F)(F)F)cc2)oc1O	u	-21%	22%	6%	7%	1.1%	0%	-6%
CC(C)CN(C(=O)COC(=O)/C=C/c1cccs1)c1c(N)n(Cc2ccccc2)c(=O)[nH]c1=O	-15%	-13%	-8%	x	12%	x	2%	x
Fc1ccc(CNc2ncccn2)cc1	29%[46.1 µM]	10%	8%	-3%	21%	x	0%	x
CCOc1ccc(C2c3cc(OC)c(OC)cc3CC(=O)N2c2ccccc2)cc1 (stereo not given)	-11%	-9%	-12%	4%	6%	-3.0%	4%	u
Nc1nc2ccc(O)cc2s1	3%	-8%	11%	-9%	4%	-2.6%	-31%	2%
Cc1cc(C)nc(SCC(=O)c2c(N)n(C)c(=O)n(C)c2=O)n1	u	2%	-7%	3%	2%	7.5%	-1%	4%
Cc1cccc(N2CCN(S(=O)(=O)c3ccc4c(c3)CC(=O)N4C)CC2)c1C	x	u	-1%[46.1 µM]	6%	-6%	x	-4%	x
COc1ccc(/C(O)=C/C(=O)C(=O)Nc2c(C)n(C)n(-c3ccccc3)c2=O)cc1	3%	-9%	6%	1%	-5%	-0.3%	-4%	-1%
CCCCN(CCCNC(=O)c1cc(Nc2ccccc2OC)nc2ccccc12)c1ccccc1	4%[46.1 µM]	-11%	-1%[46.1 µM]	x	x	-5.0%	x	-20%
CC12CCC(C(=O)N3CCOCC3)([C@H](Br)C1=O)C2(C)C (stereo not given in full)	1%[14.2 µM]	-9%	u	7%	1%	x	1%	x
COc1ccc(Nc2nc3ccccc3c3nnc(C)n23)cc1Cl	10%[46.1 µM]	-10%	-16%[46.1 µM]	x	x	-5.9%	x	u
Other results follow:
SMILES	MARV entry inh	StopGo reporter	Lassa entry inh	NS1 inh	RE007 growth inh	Cruzain inh Det	SARS PLP yeast	Cruzain noTriton
O=C(c1cc(Br)ccc1Cl)N1CCN(c2ccc(N3CCOCC3)nn2)CC1	u	u	u	x	-24%	x	4%	x
Cc1ccc2nc(SCC(=O)Nc3ccc(F)c([N+](=O)[O-])c3)[nH]c2c1	u	-3%	-12%	14%	x	14µM*	27%	u
NNC(=O)c1ccc(COc2cccc3cccnc23)cc1	0%[46.1 µM]	10%	-2%[46.1 µM]	x	-10%	x	-1%	x
Cc1ccc(CN(c2ccc(C(=O)Nc3cccnc3)cc2)S(C)(=O)=O)cc1	u	u	18%	13%	1%	2.7%	5%	7%
COc1cc(CCC(=O)OCC(=O)Nc2cc(S(=O)(=O)N3CCOCC3)ccc2Cl)cc(OC)c1OC	-3%	-14%	2%	x	10%	x	x	x
Cc1ccc(CSCCNC(=O)c2ccc(N(C)S(=O)(=O)c3ccccc3)cc2)cc1	u	-28%	u	2%	-3%	3.7%	-6%	3%
O=C(O)c1cccc(Cn2cccn2)c1	u	27%	-19%	1%	4%	4.2%	3%	-11%
C/C(=N/OC(=O)C1CC12CCC2)c1ccc(Br)cc1 (stereo not given)	4%[46.1 µM]	43%[activator]	8%	x	6%	x	-2%	x
CC(NC(=O)c1cn(C(C)c2ccccc2F)nn1)c1ccncc1 (stereo not given)	2%	-7%	6%	1%	0%	x	0%	x
Cc1nc(-n2nc(C)c(CCC(C)C)c2C)sc1C(=O)Nc1ccc(Br)cc1	25%[46.1 µM]	25%	11%[46.1 µM]	x	x	0.5%	x	-8%
COc1ccc2cc(C#N)c(Cl)nc2c1	5%[46.1 µM]	-3%	-3%	-3%	1%	x	1%	x
CCOC(=O)COc1ccc2nsnc2c1Cl	u	-18%	-24%	u	-11%	-0.9%	1%	-4%
CCOc1cc(S(=O)(=O)Nc2cc(C)cc(C)c2)ccc1Cl	u	21%	-27%	-10%	-7%	-2.4%	-10%	-2%
CCc1ccc(CN/C=C/C(=O)c2ccc(Br)cc2)cc1	u	-3%	-9%	-187%	-2%	-4.1%	-15%	3%
COC(=O)c1cc2c(C)nn(-c3ccccc3)c2s1	21%&21%	6%	10%	-10%	8%	-3.8%	-15%	0%
Cc1ccccc1N1CCN(CC(=O)NCc2ccc(Cl)cc2)CC1	x	-20%	x	-19%	-6%	x	0%	x
Cc1ccc(-n2nc3c(N4CCC(C(=O)N5CCC(C(N)=O)CC5)CC4)nnc(C)c3c2C)cc1	x	-24%	x	18%	2%	x	15%	x
COc1ccc(S(=O)(=O)Nc2ccc(O)c(Sc3ncn[nH]3)c2)cc1	6%	x	3%	-3%	5%	0.4%	0%	-9%
